# rRNA inh HTS = selective bacterial rRNA inhibition in E. coli | E. coli WT GFP vs humanized-ribosome RFP mutants, fluorescence, 24 h; hits give low values; DMSO median 0, no signal -100 | 1.6% of 350,000 active | GFP signal change (wild-type ribosome), % (test concentration not listed) | AID 720706;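 active = significant combined selectivity score with lowered wild-type GFP, culture density cut under 30%, mutant RFP and density less affected; inactive = any of these conditions unmet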; also: one replicate is shown; some compounds called inactive have numbers as strong as hits
# FGF22 binding = binders of recombinant human FGF22 by thermal shift; SYPRO orange fluorescence; percent of sucrose octasulfate shift, DMSO zero; calls only at 9.99 µM; 1.5% of 340,000 active; AID 651658;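 active = melting point raised past a set limit in the mean and every replicate; three in four hits are not shown here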
# Target sequence (Q9HCT0 whole entry, looked up): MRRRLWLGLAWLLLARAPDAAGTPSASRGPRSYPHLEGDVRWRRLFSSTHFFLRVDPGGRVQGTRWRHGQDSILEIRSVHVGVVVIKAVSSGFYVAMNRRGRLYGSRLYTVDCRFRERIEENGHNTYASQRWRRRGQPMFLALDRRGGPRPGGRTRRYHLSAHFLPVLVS
# MLL AF4-AF9 inh = blocks AF4 peptide binding to human AF9; AlphaScreen, biotin-AF4 peptide binding to FLAG-AF9; 0.47% of 350,000 active; AID 651704; inhibition, % at 10 µM;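 active = every replicate reaching a set inhibition limit, whatever the replicate mean, cut at about 25% in these data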;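 also: 0% = plate neutral control median and 100% = total signal loss; the record names both 10 and 1 µM as test concentration; the first replicate is given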
# Target sequence (P42568 whole entry, looked up): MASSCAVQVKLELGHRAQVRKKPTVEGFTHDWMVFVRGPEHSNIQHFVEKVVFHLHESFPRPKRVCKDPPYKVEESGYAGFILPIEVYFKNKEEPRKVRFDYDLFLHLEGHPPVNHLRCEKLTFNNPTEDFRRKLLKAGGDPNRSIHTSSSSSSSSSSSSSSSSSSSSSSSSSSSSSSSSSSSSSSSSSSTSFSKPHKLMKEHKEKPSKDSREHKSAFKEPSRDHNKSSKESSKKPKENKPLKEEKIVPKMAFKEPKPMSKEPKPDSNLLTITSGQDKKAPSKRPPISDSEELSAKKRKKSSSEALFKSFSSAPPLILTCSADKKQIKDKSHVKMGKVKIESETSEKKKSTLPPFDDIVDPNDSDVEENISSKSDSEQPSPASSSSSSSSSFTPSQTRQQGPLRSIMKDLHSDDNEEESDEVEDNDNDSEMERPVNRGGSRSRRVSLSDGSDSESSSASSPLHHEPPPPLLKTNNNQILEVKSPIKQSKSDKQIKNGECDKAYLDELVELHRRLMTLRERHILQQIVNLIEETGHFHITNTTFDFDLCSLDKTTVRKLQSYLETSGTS
# rRNA inh HTS OD600 = second read-out of rRNA inh HTS, no call of its own (marks repeat the call); OD600 change, %; measured here: OD600 growth;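 optical density of the mix in the first replicate; 0 = DMSO median and -100 = no signal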
# rRNA inh HTS RFP = second read-out of rRNA inh HTS, no call of its own (marks repeat the call); RFP signal change, %; measured here: RFP humanized mutant strains;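 first replicate; 0 = DMSO median and -100 = no signal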
# * marks the source's active call; other numbers are inactive results; i = inactive; & = joins results of further samples. Only part of the results is shown. The share of hits here may be higher or lower than overall.
SMILES | rRNA inh HTS | rRNA inh HTS OD600 | rRNA inh HTS RFP | FGF22 binding | MLL AF4-AF9 inh
COc1ccccc1C#Cc1ccc([C@H]2[C@@H](C#N)N(C(=O)C3CC3)[C@H]2CO)cc1 | 3 | -6 | 2.5 | i | 6.3
CCOC(=O)C1C(C)C(C(C)(C)C)N(S(=O)(=O)c2ccc(C)cc2)C1c1ccccc1 (configuration not stated) | 3 | 5 | -0.9 | i | -0.4
c1coc(-c2ccc3nncn3c2)c1 | 4 | 18 | 2.7 | i | -2.5
CO[C@H](CN(C)S(=O)(=O)c1ccc(C)cc1)[C@H](C)CN([C@H](C)CO)S(=O)(=O)c1cccc(Cl)c1 | -5 | -14 | 1.7 | i | -2.4
CCC(=O)Nc1ccc2c(c1)C(=O)N(C)[C@H]1CC[C@H](CC(=O)NC3Cc4ccccc4C3)O[C@@H]1CO2 | 3 | 1 | -0.2 | i | -10
COc1ccc(NC(=O)Nc2cccc3c2O[C@H](CN(C)S(=O)(=O)c2ccc(OC)cc2)[C@H](C)CN([C@H](C)CO)C3=O)cc1 | -7 | -1 | -0.5 | i | 3.4
CN1C(=O)c2cc(NC(=O)c3cnccn3)ccc2OC[C@H]2O[C@H](CC(=O)N[C@H]3CCN(Cc4ccccc4)C3)CC[C@@H]21 | 2 | 9 | -3.3 | i | -18
CC(=O)N(C)C[C@H]1[C@H](c2ccc(-c3ccccc3F)cc2)[C@H](CO)N1C(C)=O | -3 | -6 | 1.1 | i | -1.4
COc1ccc(S(=O)(=O)NC(=O)C2(C)CCN2C(=O)C2(c3ccccc3)CCCC2)cc1 (configuration not stated) | -4 | 4 | 1.6 | i | -1.6
O=C(Cc1ccncc1)Nc1ccc2c(c1)[C@H]1C[C@@H](CC(=O)NC3CCCCC3)O[C@H](CO)[C@H]1O2 | -3 | 2 | -1.6 | i | 1.6
Nc1ncnc2c1ncn2[C@@H]1O[C@H](CNC(=O)[C@@H](N)Cc2ccc(C(F)(F)F)cc2)[C@@H](O)[C@H]1O | 14 | 14 | 5.8 | i | -0.9
CCCN(C)C[C@@H]1Oc2cc(C#Cc3cccc(F)c3)ccc2S(=O)(=O)N([C@@H](C)CO)C[C@@H]1C | 1 | -11 | 20 | i | 8.4
C[C@@H]1CN([C@H](C)CO)C(=O)c2cc(NC(=O)Nc3ccc(C(F)(F)F)cc3)ccc2O[C@@H]1CN(C)Cc1ccc(C(F)(F)F)cc1 | -1 | 9 | 1.1 | i | -2.5
C[C@H](CO)N1C[C@H](C)[C@@H](CN(C)S(=O)(=O)c2ccccc2F)Oc2ncc(C#Cc3ccccc3F)cc2C1=O | -1 | 1 | -0.2 | i | -1.3
C[C@H](CO)N1C[C@H](C)[C@@H](CN(C)C(=O)Nc2cccc3ccccc23)Oc2ccc(NC(=O)C3CCCCC3)cc2C1=O | 1 | -1 | 2.4 | i | -0.4
C/C=C/c1cnc2c(c1)C(=O)N([C@@H](C)CO)C[C@@H](C)[C@@H](CN(C)C(=O)Nc1ccc(OC)cc1)O2 | 0 | -1 | -1.0 | i | -2.9
C[C@H](CO)N1C[C@H](C)[C@@H](CN(C)C(=O)Cc2ccccn2)Oc2cc(C#C[C@@H](C)O)ccc2S1(=O)=O | 2 | 1 | -3.2 | i | -4.4
O=C(C[C@H]1C=C[C@@H](NS(=O)(=O)c2cccc(F)c2)[C@H](CO)O1)N1CCCCC1 | 1 | -2 | -1.1 | i | -0.2
CCCNC(=O)N(C)C[C@H]1Oc2ncc(C#C[C@H](C)O)cc2C(=O)N([C@@H](C)CO)C[C@@H]1C | 1 | -4 | -1.6 | i | -2.8
CC(C)OC(=O)N(C)C[C@@H]1OCc2ccccc2-c2c(n(C)c3ccccc23)C(=O)N([C@@H](C)CO)C[C@H]1C | 1&-5 | 1&-4 | -1.9&2.2 | i | 2.9&2.5
CCC(=O)N(C)C[C@H]1Oc2cc(-c3ccccc3)ccc2S(=O)(=O)N([C@@H](C)CO)C[C@H]1C | -6 | -15 | 2.6 | i | 1.5
CC(=O)N1C[C@@H]2[C@H](c3ccccc31)[C@H](CO)N2C(=O)Nc1ccc(F)cc1 | 5 | 5 | -1.1 | i | -0.3
COC(=O)C[C@H]1CC[C@@H]2[C@@H](COc3ccc(NC(=O)Nc4cccc(Cl)c4)cc3C(=O)N2C)O1 | -3 | 0 | -3.8 | i | -1.3
O=C(NCC[C@@H]1CC[C@@H](NC(=O)c2cnccn2)[C@H](CO)O1)Nc1ccc(Cl)cc1 | -12 | -15 | 4.1 | i | 17
C[C@@H]1CN([C@@H](C)CO)C(=O)c2cc(NC(=O)Nc3ccc(F)cc3)ccc2O[C@H]1CN(C)Cc1ccc(Oc2ccccc2)cc1 | -1 | -14 | 3.8 | i | 2.8
Cc1cccc(S(=O)(=O)N2C[C@H]3[C@@H](c4ccccc42)[C@H](CO)N3Cc2ccccn2)c1 | -12 | -27 | 1.4 | i | -1.2
O=C(O)C(Cc1ccccc1)N1C(=O)C=CC1=O (configuration not stated) | 14 | 1 | 8.4 | i | -55
C[C@H](CO)N1C[C@H](C)[C@H](CN(C)C(=O)Cc2ccccc2)OCCCC[C@H](C)Oc2ccc(N(C)C)cc2C1=O | -6 | -4 | -2.1 | i | 6.3
CCC(c1nnnn1-c1ccc2c(c1)OCCO2)N1CCN(c2cc(C)ccc2C)CC1 (configuration not stated) | -1 | 24 | 0.1 | i | 3.0
COc1ccc(Nc2c(-c3ccc(F)cc3)nc3nc(C)cc(C)n23)cc1 | -5 | -1 | -0.1 | i | 14

# Brought forward from above: 5 entries, then new ones.
SMILES | rRNA inh HTS | rRNA inh HTS OD600 | rRNA inh HTS RFP | FGF22 binding | MLL AF4-AF9 inh
Cc1cccc(S(=O)(=O)N2C[C@H]3[C@@H](c4ccccc42)[C@H](CO)N3Cc2ccccn2)c1 | -12 | -27 | 1.4 | i | -1.2
O=C(O)C(Cc1ccccc1)N1C(=O)C=CC1=O (configuration not stated) | 14 | 1 | 8.4 | i | -55
C[C@H](CO)N1C[C@H](C)[C@H](CN(C)C(=O)Cc2ccccc2)OCCCC[C@H](C)Oc2ccc(N(C)C)cc2C1=O | -6 | -4 | -2.1 | i | 6.3
CCC(c1nnnn1-c1ccc2c(c1)OCCO2)N1CCN(c2cc(C)ccc2C)CC1 (configuration not stated) | -1 | 24 | 0.1 | i | 3.0
COc1ccc(Nc2c(-c3ccc(F)cc3)nc3nc(C)cc(C)n23)cc1 | -5 | -1 | -0.1 | i | 14
COc1ccccc1C(=O)Nc1ccc2c(c1)C(=O)N(C)[C@H]1CC[C@H](CC(=O)NCCc3ccncc3)O[C@H]1CO2 | 2 | 18 | -1.5 | i | -0.1
C[C@H]1CN([C@@H](C)CO)C(=O)CCCn2cc(nn2)CO[C@H]1CN(C)S(=O)(=O)c1ccccc1 | 1 | 7 | 1.2 | i | -0.2
CC(CC(=O)Nc1ccc(Cl)c(S(=O)(=O)N2CCOCC2)c1)c1ccccc1 (configuration not stated) | -4 | 4 | -1.6 | i | -7.3
C[C@H](O)C#Cc1ccc2c(c1)O[C@@H](CN(C)C(=O)CC1CC1)[C@@H](C)CN([C@@H](C)CO)S2(=O)=O | 3 | 5 | -2.4 | i | 1.6
Cc1ccc(S(=O)(=O)N(C)C[C@H]2Oc3ccc(NS(C)(=O)=O)cc3C(=O)N([C@@H](C)CO)C[C@@H]2C)cc1 | 5 | 14 | -3.8 | i | -1.2
COc1cccc(S(=O)(=O)Nc2ccc3c(c2)C(=O)N(C)[C@H]2CC[C@H](CC(=O)NCC4CCCCC4)O[C@@H]2CO3)c1 | -2 | 0 | -0.1 | i | -1.9
C[C@@H]1CN([C@H](C)CO)C(=O)c2cc(NC(=O)C3CCCCC3)ccc2O[C@@H]1CN(C)C(=O)Nc1ccc(C(F)(F)F)cc1 | -4 | -7 | 1.3 | i | -2.7
Cc1noc(C)c1NC(=O)N(C)C[C@H]1Oc2ccc(NC(=O)Nc3cccc4ccccc34)cc2C(=O)N([C@H](C)CO)C[C@@H]1C | -2 | 3 | -1.4 | i | 3.0
CCCOc1ccc(C(=O)Nc2cc(S(=O)(=O)N3CCOCC3)ccc2N2CCN(CC)CC2)cc1OC | -2 | -6 | -1.4 | i | 4.9
C(=C\c1ccccc1)/CN1CCN(C(c2nnnn2C2CCCCC2)C2CC2)CC1 (configuration not stated) | -3 | -15 | 1.8 | i | 3.8
O=C(CC1CC1)N[C@H]1CC[C@H](CCNS(=O)(=O)c2ccc(Cl)cc2)O[C@@H]1CO | -9 | -11 | 8.3 | i | -2.1
CC(C)NC(=O)Nc1ccc2c(c1)CC(=O)N([C@H](C)CO)C[C@H](C)[C@@H](CN(C)CC1CCCCC1)O2 | 1 | -8 | -0.6 | i | 2.3
CC(O)(c1cccnc1)c1nc(-c2ccc(F)c(Cl)c2)cs1 (configuration not stated) | -30 | -48 | -13 | i | 1.0
COc1ccc(S(=O)(=O)N(C)C[C@H]2Oc3c(NC(=O)Nc4ccccc4)cccc3C(=O)N([C@H](C)CO)C[C@@H]2C)cc1 | -3&6 | -3&8 | 1.6&5.5 | i | 3.3
COc1ccc(S(=O)(=O)Nc2ccc3c(c2)CC(=O)N([C@H](C)CO)C[C@H](C)[C@@H](CN(C)C(=O)NC2CCCCC2)O3)cc1 | 1 | 1 | -1.7 | i | 1.2
OC[C@@H]1[C@H](c2ccc(C#Cc3ccccc3)cc2)[C@@H]2CN(CC3CCOCC3)CCCCN12 | 6 | -19 | 15 | i | 11
C[C@H]1CN([C@@H](C)CO)C(=O)c2cc(C3=CCCC3)cnc2O[C@H]1CN(C)Cc1cccc(F)c1 | 2 | 6 | 4.7 | i | -3.7
COc1ccc(S(=O)(=O)N(C)C[C@H]2Oc3c(NC(=O)Nc4ccc(F)cc4)cccc3C(=O)N([C@H](C)CO)C[C@@H]2C)cc1 | -2 | -7 | -0.6 | i | 2.1
CC(SC(C)C(=O)NN=Cc1cccc(F)c1)C(=O)NN=Cc1cccc(F)c1 (configuration not stated) | 2 | 16 | -3.0 | i | -3.9
C[C@@H]1CN([C@@H](C)CO)C(=O)Cc2cc(NC(=O)CCC(F)(F)F)ccc2O[C@@H]1CN(C)C(=O)Nc1ccccc1 | 5 | 11 | -1.9 | i | -2.7
C[C@@H]1CN([C@@H](C)CO)C(=O)c2cc(-c3ccccc3)cnc2O[C@H]1CN(C)C(=O)c1cccnc1 | 1 | 9 | -3.7 | i | -0.9
CCCCNc1c(-c2ccc(SC3CCCCC3)cc2)nc2cnccn12 | -16&-8 | -38&-48 | 3.4&-6.8 | i | -35&-9.8
C[C@H]1CN([C@@H](C)CO)C(=O)c2cccc(NC(=O)c3cnccn3)c2O[C@H]1CN(C)S(=O)(=O)c1ccc(F)cc1 | -3 | -6 | -1.2 | i | -2.3
C[C@@H]1CN([C@H](C)CO)C(=O)c2cccc(NS(=O)(=O)c3cn(C)cn3)c2O[C@H]1CN(C)Cc1ccc(Cl)c(Cl)c1 | 0 | -6 | 0.6 | i | 3.9
O=C(C[C@H]1CC[C@H]2[C@@H](COC[C@@H](O)CN2C(=O)c2ccccc2F)O1)N1CCOCC1 | -2 | 7 | 1.9 | i | -3.6
CCC(=O)N1[C@H](CO)[C@H](c2ccc(-c3cccnc3)cc2)[C@H]1CN(CC)C(C)=O | 2 | 1 | 2.4 | i | -0.3
COc1ccc(C(=O)OCc2c(F)cccc2Cl)cc1S(=O)(=O)N1CCOCC1 | 2 | -25 | 6.1 | i | 1.7
O=C(C[C@@H]1C=C[C@@H](NC(=O)NC2CCCCC2)[C@@H](CO)O1)NCc1ccc(F)cc1 | 1 | 2 | -1.1 | i | -2.3
CCc1ccc(C(=O)COC(=O)CNC(=O)C2CCCCC2)cc1 | 4 | 8 | -3.0 | i | -0.1
C[C@@H]1CN([C@@H](C)CO)C(=O)c2cccc(NC(=O)C3CCOCC3)c2O[C@H]1CN(C)S(C)(=O)=O | 2 | 6 | -3.2 | i | -3.5
C[C@@H]1CCCCO[C@@H](CN(C)S(=O)(=O)c2cccs2)[C@H](C)CN([C@H](C)CO)C(=O)c2cc(NS(C)(=O)=O)ccc2O1 | -4 | -8 | -1.3 | i | -11
CCC(=O)N(C)C[C@@H]1Oc2cc(C#CC3CCCC3)ccc2S(=O)(=O)N([C@H](C)CO)C[C@@H]1C | -2 | -21 | 5.3 | i | 3.7
CCC(=O)N1CC2(C1)[C@@H](c1ccccc1)[C@@H](CO)N2S(=O)(=O)Cc1ccccc1 | 6 | 9 | -1.6 | i | -1.5
C[C@@H]1CN([C@H](C)CO)S(=O)(=O)c2ccc(-c3cccnc3)cc2O[C@@H]1CN(C)C | 0 | 3 | -3.0 | i | -1.9
C[C@H]1CN([C@@H](C)CO)C(=O)c2cccc(NS(=O)(=O)c3ccccc3)c2O[C@@H]1CN(C)S(=O)(=O)c1cccs1 | -5 | 2 | -0.3 | i | -0.6
C[C@@H]1CCCCO[C@@H](CN(C)C(=O)c2ccncc2)[C@H](C)CN([C@H](C)CO)C(=O)c2cc(NS(=O)(=O)c3cccs3)ccc2O1 | 1 | 3 | -1.0 | i | 0.0

# Screening results deposited in PubChem BioAssay by Broad Institute.
